Screens (PubChem)
DUX4 inh – blocks DUX4-driven transcriptional activation; 293T-iDUX4 ZSCAN4-Gaussia luciferase reporter, 24 h; active compounds read low; activity change, negative = inhibition, % (no concentration beside the values); 0.8% of 37,000 active; AID 1224904;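 active = -10% or lower and over 25 points stronger than a control reporter; inconclusive = -10% or lower with a smaller gap; inactive = above -10%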;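 also: 0% = median of neutral control wells and -100% = median of positive control wells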
DUX4 inh difference – further read-out of DUX4 inh, marked with its call; Gaussia minus Italica difference, %; measured here: selective DUX4 reporter inhibition;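 worked out from the two reporters; negative = selective loss of the DUX4 reporter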
DUX4 inh control – also measured in DUX4 inh; calls as there; activity change, negative = inhibition, %; measured here: Italica tet-on control reporter;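 0 = neutral control and -100 = positive control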
An asterisk follows results filed as active; ? = inconclusive; nt = no result given; ! = repeats disagree.

SMILES	DUX4 inh	DUX4 inh difference	DUX4 inh control
O=C(CN1CCOCC1)N1CCCCN2[C@H](C1)[C@H](c1ccc(C#Cc3ccccc3F)cc1)[C@@H]2CO	?	nt	nt
CC(=O)NC[C@@H]1[C@@H](c2ccc(-c3ccccc3F)cc2)[C@@H](CO)N1C(=O)C1CC1	-3.9	0.5	-4.4
CC(=O)N1CC(=O)N2[C@@H](CO)[C@@H](c3ccc(C#CC(C)C)cc3)[C@@H]2C1	16.7	8.6	8.1
COc1ccc(OC(=O)N(C)C[C@@H]2OCc3cn(nn3)CCCC(=O)N([C@@H](C)CO)C[C@H]2C)cc1	0.3	-2.3	2.6
C[C@@H]1CN([C@H](C)CO)S(=O)(=O)c2ccc(-c3cncnc3)cc2O[C@H]1CN(C)C(=O)Cc1ccncc1	-0.1	3.8	-3.9
O=C(C[C@@H]1CC[C@@H]2[C@H](COC[C@H](O)CN2CCC(F)(F)F)O1)N1CCC(Cc2ccccc2)CC1	?	nt	nt
CS(=O)(=O)Nc1ccc2c(c1)[C@@H]1C[C@H](CC(=O)NCC(F)(F)F)O[C@@H](CO)[C@@H]1O2	-1.0	-3.6	2.6
Cc1noc(C)c1S(=O)(=O)Nc1ccc2c(c1)C(=O)N([C@H](C)CO)C[C@H](C)[C@@H](CN(C)Cc1ccc3c(c1)OCO3)O2	4.0	12.4	-8.4
COc1ccccc1C#Cc1ccc([C@@H]2[C@@H](C#N)N(C(=O)C3CC3)[C@H]2CO)cc1	-0.1	2.3	-2.3
CC(C)NC(=O)N1Cc2cc(C(=O)NC3CCC3)nc(-c3cccc(-c4cncnc4)c3)c2[C@@H]1CCO	0.9	1.3	-0.4
O=C(Nc1ccccc1)[C@@H]1[C@@H](CO)[C@@H]2Cn3c(cccc3=O)[C@H]1N2C(=O)c1ccc(F)cc1	10.4	9.7	0.7
CCS(=O)(=O)Nc1ccc2c(c1)C(=O)N(C)C[C@@H](OC)[C@H](C)CN(C(=O)CN(C)C)[C@H](C)CO2	-1.4	-1.0	-0.4
COCC(=O)Nc1ccc2c(c1)C(=O)N(C)C[C@@H](OC)[C@H](C)CN(CC1CCCCC1)[C@@H](C)CO2	-4.6	-7.1	2.5
O=S(=O)(NC[C@@H]1[C@H](c2ccccc2)[C@H](CO)N1CC1CC1)c1ccccc1	1.1	-0.7	1.8
CCCC(=O)N1CCC2(CC1)CN(C(=O)CN1CCOCC1)[C@@H](CO)c1c2c2ccc(OC)cc2n1C	16.4	10.1	6.3
Cc1ccccc1-c1ccc([C@@H]2[C@@H](CO)N3C(=O)CN(C(=O)c4ccncc4)C[C@@H]23)cc1	-5.9	-5.1	-0.9
C[C@@H]1CN([C@@H](C)CO)C(=O)c2cc(N(C)C)ccc2O[C@@H](C)CCCCO[C@@H]1CN(C)S(C)(=O)=O	3.8	2.3	1.5
COc1ccccc1NC(=O)N[C@@H]1C=C[C@H](CC(=O)NCc2ccc(Cl)c(Cl)c2)O[C@H]1CO	3.0	16.9	-13.9
Cc1ccc(S(=O)(=O)N2C[C@@H]3N[C@H](C2)C3c2ccc(-c3cccc(C#N)c3)cc2)cc1 (some centres not stated)	-43.2*!	-32.0*	-11.2*
O=C(C[C@@H]1C[C@@H]2c3cc(NC(=O)c4ccc5c(c4)OCO5)ccc3O[C@@H]2[C@H](CO)O1)NCC1CC1	11.4	4.5	6.9
Cc1ccccc1S(=O)(=O)N1[C@H](CO)[C@@H](c2ccc(C#CC3CC3)cc2)[C@@H]1C#N	-2.3	-0.8	-1.5
CC=Cc1ccc2n(c1=O)C[C@H]1[C@H](CO)[C@@H](C(=O)N3CCc4ccccc4C3)N(C(=O)CC)[C@@H]21 (mixture of isomers)	4.9	6.7	-1.7
C[C@H](CO)N1C[C@H](C)[C@@H](CN(C)Cc2ccc(-c3ccccc3)cc2)Oc2cc(C#C[C@@H](C)O)ccc2S1(=O)=O	0.7	0.5	0.2
COc1cccc(-c2ccc3c(c2)[C@H]2[C@H](CCN2S(=O)(=O)C2=NC(C)C=N2)[C@H](CO)N3C)c1 (some centres not stated)	18.9	18.8	0.0
N#Cc1ccc(-c2ccc(C3[C@@H]4CN(C(=O)C5CCCCC5)C[C@H]3N4)cc2)cc1 (some centres not stated)	-52.3*!	-37.8*!	-14.5*!
SMILES	DUX4 inh	DUX4 inh difference	DUX4 inh control
CC(C)CC#Cc1ccc([C@H]2[C@@H](CO)N3C(=O)CN(C(=O)c4ccc5c(c4)OCO5)C[C@@H]23)cc1	-4.1	-1.1	-3.1
COC(=O)C[C@H]1CC[C@@H]2[C@@H](COc3ccc(NC(=O)NC(C)C)cc3C(=O)N2C)O1	4.5	4.2	0.3
O=C(Nc1cc(F)ccc1F)N1C[C@H]2[C@@H](c3ccccc31)[C@@H](CO)N2C(=O)c1ccccc1	-3.1	-1.7	-1.5
CC=Cc1ccc2n(c1=O)C[C@@H]1[C@@H](CO)[C@H](C(=O)N3CCc4ccccc4C3)[C@H]2N1Cc1cocn1 (mixture of isomers)	0.6	-1.4	2.0
N#C[C@H]1[C@H](c2ccccc2C2=CCCCC2)[C@H](CO)N1C(=O)Cc1ccncc1	-1.9	-4.3	2.3
COc1ccc2c3c([nH]c2c1)[C@@H](CO)N(C(=O)c1cccnc1)CC31CN(C(=O)c2cccnc2)C1	17.2	-5.4	22.6
COc1ccc(NC(=O)Nc2cccc3c2O[C@@H](CN(C)S(=O)(=O)c2cccs2)[C@@H](C)CN([C@H](C)CO)C3=O)cc1	-0.2	1.1	-1.2
COc1ccc(CN2C[C@@H](O)COC[C@@H]3O[C@H](CC(=O)NCCN4CCCC4)CC[C@H]32)cc1	4.6	7.6	-3.1
CC(=O)N1CC2(C1)[C@@H](c1ccccc1)[C@@H](CO)N2C(=O)c1cnccn1	20.0	11.9	8.1
N#C[C@@H]1[C@@H](c2ccccc2)[C@@H](CO)N1S(=O)(=O)c1ccc(-c2ccccc2)cc1	-0.9	-4.1	3.2
C[C@H](CO)N1C[C@H](C)[C@H](CN(C)C(=O)Cc2ccccc2)OCCCC[C@H](C)Oc2ccc(NC(=O)Nc3ccc(C(F)(F)F)cc3)cc2C1=O	-2.7	0.6	-3.3
O=C(C[C@@H]1CC[C@@H]2[C@H](COC[C@@H](O)CN2C(=O)c2ccncc2)O1)Nc1ccc(-c2ccccc2)cc1	3.2	7.2	-3.9
C[C@@H]1CCCCO[C@H](CN(C)C(=O)Nc2ccccc2)[C@H](C)CN([C@@H](C)CO)C(=O)c2cc(NC(=O)Nc3ccccc3)ccc2O1	5.4	5.2	0.2
O=C(C[C@@H]1C=C[C@H](NC(=O)c2cccnc2)[C@@H](CO)O1)NCCN1CCCCC1	2.9	1.6	1.2
C[C@H]1CN([C@@H](C)CO)C(=O)CCCn2nncc2CO[C@@H]1CN(C)Cc1ccccc1C(=O)O	6.5	10.1	-3.6
C[C@H]1CN([C@@H](C)CO)C(=O)Cc2cc(NC(=O)Cn3cnnn3)ccc2O[C@@H]1CN(C)S(=O)(=O)c1ccc(Cl)cc1	0.1	0.5	-0.4
CC(=O)N1[C@H](CNC(=O)CN(C)C)[C@H](c2ccc(C3=CCCCC3)cc2)[C@@H]1CO	-6.2	-4.1	-2.0
COCC(=O)N1[C@@H](C#N)[C@@H](c2ccccc2)[C@@H]1CO	1.0	-3.7	4.6
C/C=C/c1ccc([C@@H]2[C@@H](CO)N(CCC(F)(F)F)C23CN(C(C)=O)C3)cc1	-1.1	-5.3	4.2
CCN1[C@H](C(=O)NCCc2ccccc2)[C@@H](CO)[C@@H]2Cn3c(ccc(C4=CCCC4)c3=O)[C@@H]21	-3.8	0.0	-3.8
O=S(=O)(c1cccc(F)c1)N1CC[C@@H]2[C@@H](CO)Nc3ccc(C#Cc4ccccc4F)cc3[C@@H]21	-3.5	0.0	-3.5
CNC[C@H]1Oc2ccc(NS(=O)(=O)c3cn(C)cn3)cc2CC(=O)N([C@@H](C)CO)C[C@H]1C	0.7	1.3	-0.6
C[C@@H]1CN([C@@H](C)CO)C(=O)CCCn2cc(nn2)CO[C@@H]1CN(C)Cc1cccc2c1OCCCO2	0.9	-3.7	4.6
C[C@@H](NC(=O)C[C@@H]1CC[C@H]2[C@@H](COC[C@H](O)CN2C)O1)c1ccccc1	9.1	8.9	0.2
C[C@@H]1CN([C@H](C)CO)C(=O)CCCn2nncc2CO[C@@H]1CN(C)C(=O)CCCN(C)C	0.8	1.3	-0.4

A portion of the results above, for reference:
SMILES	DUX4 inh	DUX4 inh difference	DUX4 inh control
C[C@H]1CN([C@@H](C)CO)C(=O)CCCn2nncc2CO[C@@H]1CN(C)Cc1ccccc1C(=O)O	6.5	10.1	-3.6
C[C@H]1CN([C@@H](C)CO)C(=O)Cc2cc(NC(=O)Cn3cnnn3)ccc2O[C@@H]1CN(C)S(=O)(=O)c1ccc(Cl)cc1	0.1	0.5	-0.4
CC(=O)N1[C@H](CNC(=O)CN(C)C)[C@H](c2ccc(C3=CCCCC3)cc2)[C@@H]1CO	-6.2	-4.1	-2.0
COCC(=O)N1[C@@H](C#N)[C@@H](c2ccccc2)[C@@H]1CO	1.0	-3.7	4.6
C/C=C/c1ccc([C@@H]2[C@@H](CO)N(CCC(F)(F)F)C23CN(C(C)=O)C3)cc1	-1.1	-5.3	4.2
CCN1[C@H](C(=O)NCCc2ccccc2)[C@@H](CO)[C@@H]2Cn3c(ccc(C4=CCCC4)c3=O)[C@@H]21	-3.8	0.0	-3.8
O=S(=O)(c1cccc(F)c1)N1CC[C@@H]2[C@@H](CO)Nc3ccc(C#Cc4ccccc4F)cc3[C@@H]21	-3.5	0.0	-3.5
CNC[C@H]1Oc2ccc(NS(=O)(=O)c3cn(C)cn3)cc2CC(=O)N([C@@H](C)CO)C[C@H]1C	0.7	1.3	-0.6
C[C@@H]1CN([C@@H](C)CO)C(=O)CCCn2cc(nn2)CO[C@@H]1CN(C)Cc1cccc2c1OCCCO2	0.9	-3.7	4.6
C[C@@H](NC(=O)C[C@@H]1CC[C@H]2[C@@H](COC[C@H](O)CN2C)O1)c1ccccc1	9.1	8.9	0.2
C[C@@H]1CN([C@H](C)CO)C(=O)CCCn2nncc2CO[C@@H]1CN(C)C(=O)CCCN(C)C	0.8	1.3	-0.4

(next part)
SMILES	DUX4 inh	DUX4 inh difference	DUX4 inh control
O=C([C@@H]1[C@@H](CO)[C@@H]2Cn3c(ccc(C4=CCCC4)c3=O)[C@@H]2N1Cc1nccs1)N1CCOCC1	1.3	-1.3	2.6
Cc1noc(C)c1NC(=O)Nc1ccc2c(c1)C(=O)N(C)[C@@H]1CC[C@H](CC(=O)N[C@H]3CCN(Cc4ccccc4)C3)O[C@@H]1CO2	-3.6	-4.2	0.6
COc1ccccc1C(=O)N1C[C@@H]2[C@H](c3ccccc31)[C@@H](CO)N2C(=O)C1CCCCC1	-1.4	4.6	-6.1
CN(C)CC(=O)N[C@@H]1CC[C@H](CC(=O)O)O[C@H]1CO	-0.3	-2.5	2.2
COc1cccc(NC(=O)N2C[C@@H](O)COC[C@H]3O[C@H](CC(=O)NC4CCCC4)CC[C@@H]32)c1	6.8	-3.2	10.0
O=C(c1cccnc1)N1CC[C@@H]2[C@H](CO)Nc3ccc(C#Cc4cccnc4)cc3[C@@H]21	?	nt	nt
O=C(C[C@H]1CC[C@@H]2[C@H](COC[C@H](O)CN2C(=O)Nc2ccc(F)cc2)O1)NCC1CC1	12.1	4.6	7.5
CS(=O)(=O)Nc1ccc2c(c1)[C@@H]1C[C@H](CC(=O)NCc3cccc(F)c3)O[C@H](CO)[C@@H]1O2	-0.5	-5.7	5.2
Cc1cccc(-c2ccc([C@@H]3[C@H]4CN(C(=O)NC5CCCCC5)CC(=O)N4[C@H]3CO)cc2)c1	-0.9	-19.3	18.4
C[C@@H]1CCCCO[C@@H](CN(C)CC2CCCCC2)[C@@H](C)CN([C@@H](C)CO)C(=O)c2cc(NS(C)(=O)=O)ccc2O1	0.3	-1.7	2.0
CCC(=O)N1C[C@H](O)COC[C@H]2O[C@@H](CC(=O)N3CCCCC3)CC[C@@H]21	6.2	5.0	1.2
CNC[C@@H]1Oc2c(NS(=O)(=O)c3cn(C)cn3)cccc2C(=O)N([C@H](C)CO)C[C@@H]1C	1.2	-0.1	1.3
CCCNC(=O)N1CC2(C1)[C@H](c1ccccc1)[C@H](CO)N2C(=O)CC1CC1	2.4	-12.1	14.5
CCCNC(=O)[C@H]1[C@H](CO)[C@H]2Cn3c(ccc(-c4ccccc4)c3=O)[C@@H]1N2Cc1ccccc1F	-9.6	-17.9	8.3
O=C(C[C@@H]1C=C[C@@H](NC(=O)Cc2cccnc2)[C@@H](CO)O1)Nc1ccc(-c2ccccc2)cc1	2.4	2.6	-0.3
COc1ccc(S(=O)(=O)N2CCCCN3[C@@H](CO)[C@@H](c4ccc(C5=CCCC5)cc4)[C@@H]3C2)cc1	-3.2	-15.6	12.3
O=C(C1CCC1)N1C[C@@H]2[C@H](c3ccccc31)[C@H](CO)N2C(=O)Nc1cccc(F)c1	-0.1	2.0	-2.1
C[C@H](CO)N1C[C@H](C)[C@H](CN(C)Cc2ccc(-c3ccccc3)cc2)Oc2ccc(NC(=O)CCC(F)(F)F)cc2C1=O	-4.0	-6.2	2.3
CCCNC(=O)C[C@@H]1CC[C@H]2[C@@H](COC[C@@H](O)CN2C(=O)Nc2ccc3c(c2)OCO3)O1	4.6	-16.8	21.3
COc1ccccc1CN1[C@@H](CO)[C@@H]2c3ccccc3N(C(=O)c3cccnc3)C[C@@H]21	2.8	1.0	1.9
CO[C@@H]1CN(C)C(=O)c2ccc(NC(=O)c3cccnc3)cc2OC[C@@H](C)N(CC2CCCCC2)C[C@H]1C	2.3	-3.2	5.5
O=C(Nc1ccc(-c2ccccc2)cc1)[C@H]1[C@H](CO)[C@H]2Cn3c(cccc3=O)[C@H]2N1CC1CC1	-9.8	-21.2	11.4
COc1cccc(NC(=O)Nc2ccc3c(c2)C(=O)N(C)C[C@H](OC)[C@@H](C)CN[C@H](C)CO3)c1	-8.1	-11.0	2.9

Some of the compounds tested; rates above refer to the full screens.
